Bioassay records deposited in PubChem BioAssay by several laboratories.
GALR2 ag = agonists of human galanin receptor 2 (GALR2) | AID 803 | O43603 | GALR2-expressing cells, agonist activation read-out | activation, %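 (tested at 5 µM)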 | hit rate 0.48% among 140,000;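 active = above mean plus 3 SD of all compounds, about 5% in these data, not always enough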;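 note: 0% = vehicle buffer wells and 100% = reference agonist at full effect; tested in CHO reporter cells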
HSV replic up = HSV replication enhancement; HSV replication augmentation in cells, fold increase; maximum fold increase; hit rate 0.005% among 220,000; AID 1956;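 active = peak rise of 1.5-fold or more in the series; inconclusive = self-fluorescent or not available for retest; tested in PC3 cells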;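 note: first round at 10 µM; read as green reporter fluorescence; hits show the peak of a series up to 25 µM; 1 = signal of infected wells without compound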
RGS16-Gao = modulates binding between human RGS16 and Galphao; O15492+P09471; bead-based flow cytometry RGS16-Galphao binding, fluorescence; actives lie on both sides; binding response (% of control), % at 10 µM; hit rate 0.38% among 220,000; AID 1441;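 active = below 25% or above 175%, edge rows of some plates excepted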;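 note: Galphao activated by GDP with aluminum fluoride before binding; 100% = wells without compound and 0% = beads without RGS; some results beyond the cut were filed as inactive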
Insulin prom inh = TRM-6 insulin promoter activity inhibition; TRM-6 cells (human fetal islet line), insulin promoter-eGFP reporter, imaging; reporter expression induced with tamoxifen; inhibition, % at 2 µM; hit rate 0.9% among 130,000;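 active = inhibition above the mean plus 3 SD, with well images judged a real hit on visual review, cut at about 60% in these data, passing the limit was not always enough; inconclusive = inhibition over the cutoff but images rejected on review; inactive = inhibition not above the cutoff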
PKD1 inh = inhibitors of human PKD1 kinase | Q15139 | inhibition, %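 (about 10 µM by stock and volumes)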 | PKD1 kinase fluorescence polarization assay | hit rate 0.056% among 200,000;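 active = inhibition of 50% or more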;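 note: controls were vehicle for no effect and a reference inhibitor for full effect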
Target sequence (Q15139 whole entry, looked up): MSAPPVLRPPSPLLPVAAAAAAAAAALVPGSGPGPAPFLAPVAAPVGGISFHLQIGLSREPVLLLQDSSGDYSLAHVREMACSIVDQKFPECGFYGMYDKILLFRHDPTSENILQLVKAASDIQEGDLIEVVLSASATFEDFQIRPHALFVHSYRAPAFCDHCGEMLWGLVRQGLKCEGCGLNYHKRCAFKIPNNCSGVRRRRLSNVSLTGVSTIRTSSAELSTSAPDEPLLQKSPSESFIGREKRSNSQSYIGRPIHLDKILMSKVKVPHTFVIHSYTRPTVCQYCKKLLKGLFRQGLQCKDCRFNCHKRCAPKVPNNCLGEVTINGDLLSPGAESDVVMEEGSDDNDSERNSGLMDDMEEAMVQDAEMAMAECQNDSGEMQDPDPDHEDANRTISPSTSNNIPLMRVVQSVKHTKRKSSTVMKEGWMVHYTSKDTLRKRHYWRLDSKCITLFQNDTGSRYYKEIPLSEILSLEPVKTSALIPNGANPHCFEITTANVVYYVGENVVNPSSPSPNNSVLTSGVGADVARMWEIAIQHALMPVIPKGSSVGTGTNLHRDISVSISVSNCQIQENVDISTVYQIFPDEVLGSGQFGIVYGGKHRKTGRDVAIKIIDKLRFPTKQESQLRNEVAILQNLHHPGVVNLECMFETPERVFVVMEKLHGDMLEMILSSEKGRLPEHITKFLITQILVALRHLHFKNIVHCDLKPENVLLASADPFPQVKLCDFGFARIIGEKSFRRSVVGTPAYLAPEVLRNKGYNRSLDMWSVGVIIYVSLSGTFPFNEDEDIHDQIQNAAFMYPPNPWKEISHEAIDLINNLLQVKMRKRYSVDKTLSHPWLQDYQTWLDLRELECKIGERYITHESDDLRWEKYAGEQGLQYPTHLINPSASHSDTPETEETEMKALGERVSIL
Insulin prom inh cell count = second read-out of Insulin prom inh, no call of its own (marks repeat the call); normalized cell count, %; measured here: cell count, toxicity; reference of the scale not given here;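 cells exposed to compound for 48 h; stained nuclei by imaging scaled within each plate; lower means fewer cells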
HSV replic up primary fold = further read-out of HSV replic up, marked with its call; fold increase; compound at 10 µM; measured here: primary screen fold increase 10 uM; tested in PC3 cells;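 GFP signal in the first replicate; 1 = infected wells without compound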
The depositor's hits bear a star; i = inactive; ? = inconclusive; / = no result given. Compounds were not picked by outcome; 1.1% or so of the library scored in one or more.

entry	mol	GALR2 ag	HSV replic up	HSV replic up primary fold	RGS16-Gao
1	COCCn1c(C)cc(C2=NNC(=Nc3ccc(OC)cc3)SC2)c1C	-0.9	i	0.87	99.7
2	CCC(C)NC(=O)CNS(=O)(=O)c1ccc(C)cc1 (stereo unspecified)	0.1	i	0.91	107.6
3	CC(=O)Nc1cccc(C(=O)/C=C/c2ccc[nH]2)c1	/	i	0.99	89.5
4	CCOC(=O)Oc1ccc2c(=O)c(Oc3cccc(C)c3)coc2c1	-0.8	i	0.9	103.1
5	Cc1ccc2[nH]c(C)c(CCNC(=O)C3CCCCC3C(=O)OCC(F)(F)F)c2c1 (stereo unspecified)	-2.2	i	0.89	111.0
6	Cc1ccc(N(C(=O)Cn2nnc3ccccc32)C(C(=O)NC2CCCCC2)c2cn(C)nc2C)cc1 (stereo unspecified)	0.7	i	0.95	100.7
7	CSc1c(C#N)c(N)c(C#N)c2c1COC(C)(C)C2	-2.1	i	1.04	93.3
8	Cc1nnc(SCC(=O)Nc2ccc(-c3nc4ccccc4s3)cc2)s1	-0.1	i	0.99	112.0
9	CCCN1C2CCCC1CC(NC(=O)c1cc(OC)c(OC)c(OC)c1)C2 (stereo unspecified)	-0.9	i	0.98	101.5
10	NC12NC(=O)C3(O)C4C5CC(C6C5C3C61)C42 (stereo unspecified)	/	i	1.08	106.8
11	COc1cc(/C=N/N(C)S(=O)(=O)c2ccc(C)cc2)cc([N+](=O)[O-])c1O	/	i	0.86	93.7
12	O=C(NC(=S)Nc1ccccc1N1CCOCC1)c1ccc(-c2cc(Cl)ccc2Cl)o1	-1.4	i	1.21	96.5

entry	Insulin prom inh	Insulin prom inh cell count	PKD1 inh
1	10.3	128.9	3.8
2	-25.6	95.8	-9.9
3	/	/	/
4	-9.7	176.1	-0.5
5	-8.1	104.6	-2.6
6	/	/	-14.6
7	19.1	105.1	4.5
8	40.7	81.5	-6.1
9	-78.6	134.3	-10.5
10	-26.7	91.2	-0.7
11	/	/	/
12	/	/	-7.0

(continued)
entry	mol	GALR2 ag	HSV replic up	HSV replic up primary fold	RGS16-Gao
13	O=C(O)C12C[C@H]3C[C@@H](C1)CC(n1ncc(N4CCN(c5ccccc5)CC4)c(Cl)c1=O)(C3)C2	-0.1	i	0.93	100.5
14	CCOC(=O)CSc1nc(C)cc(C)c1C(N)=O	/	i	0.89	100.7
15	COC(=O)CCN(C(=O)c1ccc(Cl)c([N+](=O)[O-])c1)c1ccccn1	/	i	0.99	99.9
16	CCN(CCO)C(=S)Nc1cc(C(=O)OC)ccc1C(=O)OC	-1.2	i	1.02	105.9
17	O=[N+]([O-])c1ccc(-c2cn3nc(-c4ccccc4)c(-c4ccccc4)nc3n2)cc1	/	i	1.12	100.9
18	O=C(COC(=O)c1ccccc1)Nc1cc(Cl)ccc1Oc1ccccc1	-1.0	i	1.16	112.2
19	CCN1CCN(Cc2c(O)ccc3c2O/C(=C\c2ccc(C)cc2)C3=O)CC1	/	?	/	97.2
20	C/C(=N\S(=O)(=O)c1ccc(C)cc1)N1CCN(S(=O)(=O)c2ccccc2)C1C(C)C (stereo unspecified)	-0.3	i	1.05	102.1
21	Cc1ccccc1NS(=O)(=O)c1cc(C(=O)NCc2ccco2)ccc1C	-2.2	i	0.89	98.2
22	Cc1cccc(/C(N)=N/OC(=O)Cc2ccccc2)c1	/	i	1.09	100.9
23	COc1ccc2c(c1)CC(=O)NC=C2	/	i	1.09	114.8
24	COc1cc(NC(=O)CN(c2cc(C)cc(C)c2)S(=O)(=O)c2c(C)noc2C)cc(OC)c1	1.6	i	0.98	103.0

entry	Insulin prom inh	Insulin prom inh cell count	PKD1 inh
13	2.6	125.2	-12.9
14	/	/	3.8
15	/	/	/
16	-3.5	127.0	-5.3
17	/	/	/
18	/	/	0.1
19	16.7	73.3	-5.3
20	-25.0	45.2	0.4
21	20.0	57.1	-2.8
22	/	/	-2.3
23	/	/	7.7
24	/	/	-0.8

Additional compounds.
entry	mol	GALR2 ag	HSV replic up	HSV replic up primary fold	RGS16-Gao
25	CC(C)OCC(O)CN1CCN(C(c2ccccc2)c2ccccc2)CC1 (stereo unspecified)	/	i	0.95	91.1
26	COc1ccc(NC(=O)C2CCN(C(=O)NC3CCCCC3)CC2)c(OC)c1	-1.4	i	0.63	102.5
27	COC(=O)C1CCN(C(=O)c2cc(=O)[nH]c3ccccc23)CC1	/	i	0.97	96.2
28	CCOC(=O)CN1CC23C=CC(O2)C(C(=O)Nc2ccc(C(C)=O)cc2)C3C1=O (stereo unspecified)	-1.2	i	0.97	94.6
29	Cc1cccn2c(=O)c3cc(C(=O)NC(C)C)c(=N)n(Cc4ccncc4)c3nc12	4.3	/	/	90.5
30	Cc1cc(=O)[nH]c(SCC(=O)Nc2ccc(Br)cn2)n1	-1.3	i	0.89	104.9
31	COc1cc(C(=O)N2CCc3ccccc32)ccc1OCc1c(C)noc1C	/	i	0.91	101.1
32	Cc1cc(C(F)(F)F)n2nc(C(=O)O)c(Cl)c2n1	-0.1	i	0.94	98.4
33	COCCCNCCCCOc1ccc(OCc2ccccc2)cc1	/	i	0.86	102.5
34	N#Cc1sc2nc(-c3cccs3)cc(-c3ccccc3)c2c1N	-0.1	i	0.96	96.8
35	S=C(NCc1ccco1)Nc1cccc(Cl)c1	-3.7	i	1.07	98.4
36	COc1ccc(C(=O)Nc2ccc(NS(=O)(=O)c3ccccc3)cc2)cc1OC	/	i	0.88	95.2

entry	Insulin prom inh	Insulin prom inh cell count	PKD1 inh
25	35.0	95.0	-2.6
26	-25.0	75.1	14.0
27	/	/	3.6
28	/	/	-10.0
29	/	/	-4.1
30	18.8	105.9	-5.3
31	/	/	/
32	-15.4	104.3	-5.4
33	/	/	-6.8
34	0.0	103.4	-8.6
35	-51.9	89.6	6.2
36	/	/	/

Following part.
entry	mol	GALR2 ag	HSV replic up	HSV replic up primary fold	RGS16-Gao
37	COC(=O)c1ccc(NC(=O)CSc2nncn2C)cc1	-2.0	i	1.02	102.1
38	Cc1nnc2c(-c3ccccc3)nc3ccccc3n12	-3.0	i	0.89	102.7
39	Cc1ccc(C)c2[nH]c(=O)c(CCNC(=O)Cc3cccs3)cc12	-2.4	/	/	/
40	CCOP(=O)(OCC)C(Nc1ccc([N+](=O)[O-])cc1)c1ccc(Cl)cc1 (stereo unspecified)	/	i	0.94	61.7
41	COc1ccc(OCC(=O)Nc2ccc(S(=O)(=O)Nc3cc(C)nc(C)n3)cc2)cc1	-3.3	i	0.93	104.2
42	O=C(NCCCCc1ccccc1)c1ccc(Br)o1	-2.0	i	1.13	86.2
43	CC1CN(C(=O)c2cccs2)CC(C)O1 (stereo unspecified)	/	i	0.88	100.6
44	Cc1nn(-c2ccccc2)c(Cl)c1/C=N/NC(=O)OC(C)(C)C	-2.6	i	0.83	101.7
45	CCCCNC(=O)c1cc(C)nn1-c1ccccc1	/	i	0.93	96.5
46	O=C(NC1=C(Nc2ccc(F)cc2)C(=O)c2ccccc2C1=O)c1ccc(Cl)cc1	-1.4	i	0.83	85.0
47	COc1cc(CC(NC(C)=O)C(=O)NC2CCN(C(=O)C3CC3)CC2)cc(OC)c1 (stereo unspecified)	/	i	0.99	101.0
48	CC(C)[C@H]1CN=C2N(C[C@H](C)NC(=O)CCC3CCCCC3)[C@H](Cc3ccc(O)cc3)CN21	/	i	0.96	101.5

entry	Insulin prom inh	Insulin prom inh cell count	PKD1 inh
37	21.4	131.2	-5.1
38	-9.1	99.6	-10.4
39	-57.1	28.8	-0.6
40	-100.0	44.7	0.1
41	/	/	4.8
42	-7.7	68.8	-4.4
43	-7.0	98.5	4.4
44	/	/	2.4
45	/	/	/
46	/	/	0.3
47	/	/	-5.1
48	/	/	/

Profiles from above. Order of values: GALR2 ag | HSV replic up | HSV replic up primary fold | RGS16-Gao | Insulin prom inh | Insulin prom inh cell count | PKD1 inh
O=C(NCCCCc1ccccc1)c1ccc(Br)o1 as listed: -2.0 | i | 1.13 | 86.2 | -7.7 | 68.8 | -4.4
Cc1nnc2c(-c3ccccc3)nc3ccccc3n12 as listed: -3.0 | i | 0.89 | 102.7 | -9.1 | 99.6 | -10.4
CCCCNC(=O)c1cc(C)nn1-c1ccccc1 as listed: / | i | 0.93 | 96.5 | / | / | /
Cc1ccc(C)c2[nH]c(=O)c(CCNC(=O)Cc3cccs3)cc12 as listed: -2.4 | / | / | / | -57.1 | 28.8 | -0.6

Shown with each value named: three of the compounds above
23	COc1ccc2c(c1)CC(=O)NC=C2
  GALR2 ag: /
  HSV replic up: i
  HSV replic up primary fold: 1.09
  RGS16-Gao: 114.8
  Insulin prom inh: /
  Insulin prom inh cell count: /
  PKD1 inh: 7.7

13	O=C(O)C12C[C@H]3C[C@@H](C1)CC(n1ncc(N4CCN(c5ccccc5)CC4)c(Cl)c1=O)(C3)C2
  GALR2 ag: -0.1
  HSV replic up: i
  HSV replic up primary fold: 0.93
  RGS16-Gao: 100.5
  Insulin prom inh: 2.6
  Insulin prom inh cell count: 125.2
  PKD1 inh: -12.9

8	Cc1nnc(SCC(=O)Nc2ccc(-c3nc4ccccc4s3)cc2)s1
  GALR2 ag: -0.1
  HSV replic up: i
  HSV replic up primary fold: 0.99
  RGS16-Gao: 112.0
  Insulin prom inh: 40.7
  Insulin prom inh cell count: 81.5
  PKD1 inh: -6.1

(further entries)
entry	mol	GALR2 ag	HSV replic up	HSV replic up primary fold	RGS16-Gao
49	CCOC(=O)c1sc(NC(=O)Cc2c(F)cccc2Cl)nc1C	/	i	0.84	100.1
50	CC(C)CC(=O)N1CCN(CC2CC=CCC2)CC1 (stereo unspecified)	-1.9	i	0.97	122.7
51	CN(C(=O)CSc1nc(O)cc(=O)n1C1CCCC1)c1ccccc1	/	i	1.04	101.8
52	O=C(NCc1ccccc1)N1CCC(n2cnc3cc(F)ccc32)CC1	-0.1	i	0.96	102.1
53	Cc1ccc(OCC(=O)N/N=C\c2ccco2)c(C)c1	-2.1	i	0.98	99.1
54	CCOc1ccc(NC(=O)N2CCC(n3nnc4ccccc43)CC2)cc1	/	i	0.98	102.2
55	Nc1nc(NCc2ccco2)nc(N2CCCC2)c1[N+](=O)[O-]	/	i	1.06	112.4
56	CCCNC(=O)CCn1c(-c2ccc(C)cc2)cc(C(=O)OCC)c1C	-1.6	i	1.2	103.3
57	CCSc1nnc(-c2ccccc2NC(=O)CC)c(=O)[nH]1	-2.3	i	0.98	98.9
58	CCC(CO)NCc1sccc1C (stereo unspecified)	/	i	0.88	105.4
59	Cc1cc2c(cc1C)N(C(=O)CSc1nncn1C)C(C)(C)c1ssc(=S)c1-2	-0.9	i	0.86	109.9
60	COc1ccc(NC(=O)C(=O)NCC(=O)Nc2cccc(C(F)(F)F)c2)cc1	/	i	0.86	103.1

entry	Insulin prom inh	Insulin prom inh cell count	PKD1 inh
49	-26.7	104.2	-3.7
50	72.2	135.2	-8.7
51	/	/	/
52	77.8*	110.3*	8.3
53	11.4	57.4	-1.6
54	/	/	-0.4
55	/	/	/
56	-80.0	100.8	-2.6
57	20.8	142.2	-3.3
58	-40.7	52.8	3.2
59	-85.0	86.2	0.5
60	/	/	1.8

Additional structures.
entry	mol	GALR2 ag	HSV replic up	HSV replic up primary fold	RGS16-Gao
61	Cc1ccc(S(=O)(=O)N2CCN(C(=O)c3ccc([N+](=O)[O-])cc3)C2)cc1	/	/	/	109.8
62	COc1ccc(/C=C(\C#N)C(=O)OCC(=O)Nc2c(C)cccc2C)cc1	0.7	i	1	99.7
63	Cc1cccc(N2C(=O)c3cccc4c(N5CCCCC5)c([N+](=O)[O-])cc(c34)C2=O)c1C	0.6	i	1	100.2
64	COc1ccc(C(=O)c2ccccc2Cl)cc1OC	/	i	1.07	101.1
65	CCn1c(=O)[nH]c(=O)c2c(N)c(C(=O)c3cc(F)ccc3F)sc21	/	i	0.78	94.4
66	CCSc1nnc(-c2cccnc2)n1-c1ccc(Cl)c(C)c1	-1.0	i	0.85	101.6
67	Cc1ccc(C(c2nnnn2C(C)(C)C)N2CCC(C)CC2)cc1 (stereo unspecified)	-0.7	i	1.18	105.2
68	O=C(N/N=C/c1ccco1)c1cc(-c2cccc(Br)c2)nc2ccccc12	-1.0	i	0.83	92.3
69	Nc1nnn(CC(=O)N/N=C/c2ccccc2Cl)n1	/	i	1.16	99.6
70	CCOC(=O)c1c(C)[nH]c2cc(Br)c(OC)cc12	-1.4	i	0.94	105.0
71	COCCNC(=O)Cn1nc(C)c2ccccc2c1=O	-0.8	i	0.83	97.8

entry	Insulin prom inh	Insulin prom inh cell count	PKD1 inh
61	-128.6	50.0	-0.4
62	-56.2	122.8	-13.2
63	-39.5	132.0	4.7
64	/	/	-0.6
65	/	/	/
66	13.9	137.4	-1.6
67	-238.1	83.2	4.0
68	50.0	82.3	-4.6
69	/	/	/
70	/	/	1.7
71	32.1	92.9	-13.2
